Screening data deposited in PubChem BioAssay by National Center for Advancing Translational Sciences (NCATS).
2A Renilla: Primary qHTS Assay for Foot and Mouth Disease Virus Antivirals against NCGC Sytravon and CBC Compound Libraries: Renilla Luciferase Signal; Potency, µM (doses to about 57.5 µM), inactives show at the top dose signal change, negative = less light; HEK cells with a luciferase reporter of 2A StopGo recoding; hit rate 0.32% among 120,000; active means well fitted falling curve with a large enough effect; inconclusive means small, poorly fitted or top-dose-only effect; inactive means no such curve, though single readings can be large or run the other way; further: nearly all actives have a fitted effect of over 55% in size; overnight with compound
StopGo FLuc: Primary qHTS Assay for Foot and Mouth Disease Virus Antivirals against NCGC Sytravon and CBC Compound Libraries: Firefly Luciferase Signal | Potency, µM (top dose mostly 57.5 µM), for inactives: at the top dose signal change, negative = less light | AID 1745856, 2022 | hit rate 0.23% among 120,000 | HEK cells with a luciferase reporter of 2A StopGo recoding; active = well fitted falling curve with a large enough effect; inconclusive = small, poorly fitted or top-dose-only effect; inactive = no such curve, though single readings can be large or run the other way; further: nearly all actives have a fitted effect of over 60% in size; overnight with compound
* marks the source's active call; other numbers are inactive results; ? = inconclusive; & = joins results of further samples; [ ] = dose if it differs, or a comment. On the % scale 0 is the no-effect control and ±100 the full control effect; potency means the concentration at half of the fitted maximal effect.

Preview:
SMILES	2A Renilla	StopGo FLuc
CN1CCC(=C2c3ccccc3Sc3ccccc32)CC1	-15%	-27%
CCN(CC)C(=O)C(=O)N/N=C(\C)CCc1ccccc1	2%	7%
COc1ccc(-c2nc3ccc(C4=NNC(=O)CC4C)cc3[nH]2)cc1 (stereo unspecified)	34%[activator]	71%[activator]

This part in full, repeating the preview:
SMILES	2A Renilla	StopGo FLuc
CN1CCC(=C2c3ccccc3Sc3ccccc32)CC1	-15%	-27%
CCN(CC)C(=O)C(=O)N/N=C(\C)CCc1ccccc1	2%	7%
COc1ccc(-c2nc3ccc(C4=NNC(=O)CC4C)cc3[nH]2)cc1 (stereo unspecified)	34%[activator]	71%[activator]
COCCNC(=O)CSc1nnc2[nH]c(=O)cc(C)n12	-9%	-22%
Cc1ccc(CNC(=O)c2cc(C)nc3c2c(C)nn3-c2ccc(C)cc2)cc1	0%	-11%
Cc1cc(C)cc(NC(=O)c2sc3nc[nH]c(=O)c3c2C)c1	-10%	-2%
CCOc1ccc(S(=O)(=O)N2CCN(C(=O)[C@H](C)NC(N)=O)CC2)cc1	-5%	4%
Cc1nn(C)c2c(=O)n(CC(=O)NCc3ccccc3Cl)ccc12	31%[activator]	127%[activator]
CC1(C)CC(=O)C2=C(C1)Nc1nonc1NC2c1ccccc1F (stereo unspecified)	0%	-4%
CCC1c2ccsc2CCN1C(=O)/C=C/c1ccccc1 (stereo unspecified)	55%[activator]	95%[activator]
CCC1CCCCN1C(=O)CSc1nc2c([nH]c3ccccc32)c(=O)n1-c1ccc(OC)cc1 (stereo unspecified)	-10%	-2%
CCc1ccc(NC(=O)OCC(C)C)cc1	1%[1.06 µM]	23%
Cc1cc(=O)oc2c(C)c(OCc3nc(-c4ccc(Cl)cc4)no3)ccc12	-17%	-4%
CCCNC(=O)c1cc(=O)[nH]c2ccc(S(=O)(=O)N(CC)CC)cc12	1%	16%
COc1ccccc1CNc1nc2ccccc2nc1NS(=O)(=O)c1cc(C)ccc1C	42%[activator]	15%
Cc1cc(C)cc(NC(=O)CCCc2nc(-c3ccccc3Cl)no2)c1	-2%	-10%
CCOC(=O)C1=C[C@]2(CC)CCCN3CCc4c(n1c1ccccc41)[C@@H]32	-2%	0%[11.5 µM]
CC(C)Cn1cnc2c1c(=O)n(CC(=O)NC(C)CCc1ccccc1)c(=O)n2Cc1ccccc1 (stereo unspecified)	12%	12%
COc1ccc(N(C(=O)CNC(C)=O)C2(C(=O)Nc3c(C)cccc3C)CCCCC2)cc1	-2%	-1%
Cn1c(CC(=O)Nc2cccc(C(F)(F)F)c2)nnc1SCC(=O)c1ccc(C#N)cc1	4%	-10%
COc1cccc2sc(NC(=O)CS(=O)(=O)c3ccc(C)cc3)nc12	3%	3%
CCC12CN3CC(C)(CN(C1)C3c1c(C)n(C)c3ccccc13)C2=O (stereo unspecified)	0%	-2%
COCC(C)NS(=O)(=O)c1c(C)c(C)cc(C)c1C (stereo unspecified)	235%[activator]	0%
CCOC(=O)CSc1nc2cc3c(cc2c(=O)n1Cc1ccc(C(=O)NCCc2ccc(OC)c(OC)c2)cc1)OCO3	5%	-13%
CCOc1ccc(C(=O)Nc2ccc3nn(-c4ccc(OC)c(Cl)c4)nc3c2)cc1	-8%	7%

Structures from the list above that have an NH in an aromatic ring (5):
SMILES	2A Renilla	StopGo FLuc
COc1ccc(-c2nc3ccc(C4=NNC(=O)CC4C)cc3[nH]2)cc1 (stereo unspecified)	34%[activator]	71%[activator]
COCCNC(=O)CSc1nnc2[nH]c(=O)cc(C)n12	-9%	-22%
Cc1cc(C)cc(NC(=O)c2sc3nc[nH]c(=O)c3c2C)c1	-10%	-2%
CCC1CCCCN1C(=O)CSc1nc2c([nH]c3ccccc32)c(=O)n1-c1ccc(OC)cc1 (stereo unspecified)	-10%	-2%
CCCNC(=O)c1cc(=O)[nH]c2ccc(S(=O)(=O)N(CC)CC)cc12	1%	16%

Continued.
SMILES	2A Renilla	StopGo FLuc
Cn1cnc2c1c(=O)n(CCCSc1nnc(-c3cccc(Cl)c3)o1)c(=O)n2C	20%	53%[activator]
Cc1ccc(C(C)C)c(OCC(=O)NCC2(N(C)C)CCCCC2)c1	-4%	-5%
CC(C)(C)Sc1ccsc1C(=O)O	12%	0%
O=c1oc2ccc(Br)cc2cc1-c1nc(-c2cccs2)no1	-1%	-4%
COc1cccc(NC(=O)CNc2ccccc2C(=O)NC2CC2)c1	6%	0%
COCC(C)Nc1ncnc2c1cnn2-c1ccc(C)c(C)c1 (stereo unspecified)	-2%	148%[activator]
Cn1nc(C(=O)Nc2cc(F)ccc2F)c2c1-c1ccccc1SC2	0%	17%
Cc1ccc(NC(=O)Cn2c(=O)n(Cc3ccc(F)cc3)c(=O)c3cccnc32)cc1C	-2%	-16%
O=C(CSc1nc2c(oc3ccccc32)c(=O)n1Cc1ccco1)Nc1cccc(Cl)c1	6%	-19%
CCC(=O)N1c2nc(C(C)C)nn2C2(CCCCC2)[C@@H]2CCCC[C@@H]21	16%&3%	0%&-22%
CN(CCCOc1ccccc1)CCC(=O)N(CC#N)CC#N	-1%	0%
Cc1cc(-c2ccccc2)cc(-c2ccccc2)n1	15%	140%[activator]
C=CCN(C)Cc1cccc(OC)c1OC	5%	1%
Cc1ccccc1N(C)S(=O)(=O)c1nnc(NC(=O)c2ccccc2F)s1	15%	11%
CCC(CC)C(=O)N1CCc2cc(OC)c(OC)cc2C1COc1ccccc1OC (stereo unspecified)	0%	-8%
Cc1ccc(S(=O)(=O)NCC(=O)O)cc1	9%	2%
CC(C#N)OC(=O)C12CC3CC(CC(O)(C3)C1)C2 (stereo unspecified)	10%	1%
CC(CC(=O)Nc1ccc(F)c(F)c1)n1ccnc1 (stereo unspecified)	11%	5%
CCOc1ccc(C(C)NC(=O)NCc2ccn[nH]2)cc1OC (stereo unspecified)	-14%	-10%
CCOC(=O)c1c(C)c(C(=O)Nc2cc(F)ccc2F)c(C)n1C	0%	110%[activator]
CC(=O)Nc1ccc(NC(=O)NC(C)c2ccc(Cl)cc2)cc1 (stereo unspecified)	16%	-5%
Cc1ccc(S(=O)(=O)NCC(=O)O)cc1C	-10%	2%
CCOc1ccc(-n2c(C)nc3cc(C(=O)NCc4ccc(C)cc4)ccc32)cc1	118%[activator]	17%
CC(NC(=O)CC1CCCO1)c1ccc(-c2ccccc2)cc1 (stereo unspecified)	?	23%
COc1cc(NC(=O)Cn2cc(S(=O)(=O)c3ccccc3)c(=O)c3ccccc32)cc(OC)c1	104%[activator]	-9%
(more compounds)
SMILES	2A Renilla	StopGo FLuc
COc1ccc(NC(=O)c2ccc3oc(=O)c(S(=O)(=O)c4ccc(C)cc4)cc3c2)cc1OC	-11%	-11%
c1ccc(-c2nnn(Cc3coc(-c4ccccc4)n3)n2)cc1	-8%	-1%
O=C(NCCCNC(=O)c1ccccc1Br)c1nc2ccccc2c(=O)[nH]1	-5%	107%[activator]
CCOC(=O)c1sc2cccc(F)c2c1COC(=O)c1ccoc1	11%	15%
O=C(COc1ncnc2c(Cl)cc(Cl)cc12)Nc1cccc(Cl)c1	-5%	9%
COCCN1Cc2cccc(C(=O)Nc3ccccc3C(=O)OC)c2C1=O	24%	16%
CC(=O)Nc1cccc(NC(=O)CSc2nccn2C2CCCC2)c1	-3%	1%
Clc1ccc(N/N=C/c2cccc(/C=N/Nc3ccc(Cl)c(Cl)c3)c2)cc1Cl	19%	271%[activator]
O=C(Nc1nc(C23CC4CC(CC(C4)C2)C3)cs1)c1cccnc1	?	?
CCCCOc1ccc(C2C(=O)N(C3CCCCC3)CC(=O)N2C2CCCCC2)cc1 (stereo unspecified)	-9%	-10%
O=C(Nc1ccc2oc(-c3ccc(-c4ccccc4)cc3)nc2c1)c1ccco1	-4%	104%[activator]
CCCCN(C)CCCNC(=O)CN1N=C(c2ccc(OC)cc2)CCC1=O	-8%	-16%
O=C(c1cc2ccccc2oc1=O)N(Cc1ccco1)Cc1ccccc1Cl	111%[activator]	142%[activator]
CN(C(=O)COc1ccc2ccc(=O)oc2c1)C1CCS(=O)(=O)C1 (stereo unspecified)	-2%	1%
CCCCCC1COC(c2ccc(O)cc2)OC1 (stereo unspecified)	0%	28%
Cn1nc(C(=O)N2CCSCC2)c2ccccc2c1=O	-10%	-1%
CCOc1ccc(CNC(=O)c2ccc3c(c2)N(CC)CCS3)cc1	0%	0%
COc1cccc(C(=O)Oc2ccc3c(=O)c(-c4ccc(OC)c(OC)c4)c(C)oc3c2)c1	-14%	-3%
O=C(OC(C(=O)Nc1ccc(Cl)cc1C(F)(F)F)c1ccccc1)c1ccccc1O (stereo unspecified)	41%[activator]	13%
CCCC(=O)Nc1ccc2nn(-c3ccc(CC)cc3)nc2c1	-7%	107%[activator]
CCOc1ccc(NC(=O)c2ccc3ccccc3n2)cc1OC	0%	50%[activator]
CC(Oc1ccc(Br)cc1)c1nc(-c2ccccn2)no1 (stereo unspecified)	7%	-51%
CC1(C)[C@@H](OC(=O)CCC(=O)O)CC[C@]2(C)[C@H]3C(=O)C=C4[C@@H]5C[C@@](C)(C(=O)O)CC[C@]5(C)CC[C@@]4(C)[C@]3(C)CC[C@@H]12	-13%	-5%[11.5 µM]
O=C(c1cncn1-c1ccc(F)cc1)N1CCN(CCN2CCCC2)CC1	4%	0%
CC(C)Cn1nc(C(=O)NCc2cccc(CN(C)C)c2)c2ccccc2c1=O	-14%	-20%
More compounds
SMILES	2A Renilla	StopGo FLuc
Nc1nnnn1Cc1nnc(SCc2ccc(F)cc2)n1-c1ccccc1	-17%	20%
N#C/C(=C/c1ccccc1OC(F)F)C(=O)O	21%	?
COc1ccc(CCNC(=O)c2ccc3c(c2)N(Cc2ccc(C)cc2)CCS3)cc1OC	9%	-2%
COc1ccc(CNc2ncnc3onc(-c4ccc(F)cc4)c23)cc1	?	?
O=C(CSc1ncnc2ccccc12)Nc1ccccc1C(=O)Nc1ccc(Cl)cc1	-11%	126%[activator]
CCOC(=O)c1cc2c(=O)n3ccccc3nc2n(CCOC)c1=NC(=O)c1c(-c2ccccc2Cl)noc1C	?	1%
Cc1ccc(NC(=S)NCC2(N(C)C)CCCCC2)cc1Cl	38%	?
Cc1cc(Cl)ccc1OCC(=O)Nc1ccccc1OC(F)F	7%	0%
Oc1ccc(-c2nc(-c3ccc(F)cc3)cs2)cc1	-7%	43%[activator]
CC(C)CC(=O)Nc1nnc(S(=O)(=O)N(CC(C)C)c2ccccc2)s1	-25%	6%
CCc1cc(=O)oc2cc(C)cc(OCC(=O)NC3CC3)c12	10%	16%
N#Cc1ccccc1S(=O)(=O)N1CCN(C(=O)CCc2ncc(-c3c(F)cccc3F)o2)CC1	6%	22%
CCc1ccc(S(=O)(=O)c2nnn3c2nc(NC(C)C)c2sccc23)cc1	-13%	-22%
O=C(CNC(=O)c1ccccc1F)OCc1cc(=O)n2nc(C3CCCCC3)sc2n1	-12%	5%
O=C(O)CCc1nn2c3ccccc3n(CCOc3ccccc3)c2nc1=O	-5%	9%
COc1ccc(-c2nc3cc(NC(=O)c4cc(OC)cc(OC)c4)ccc3o2)cc1	2%	81%[activator]
COc1ccccc1C(=O)Nc1nc2ccc(S(=O)(=O)N3CCCC3)cc2s1	-5%	8%
COC(=O)CC(NC(=O)c1nn(C)c(=O)c2ccccc12)c1ccc(F)cc1 (stereo unspecified)	16%	-3%
CC(C)CNC(=O)CN1CCN(Cc2ncc(-c3ccccc3)o2)CC1	5%	166%[activator]
C/C(=N\NC(=O)c1cc(C2CC2)nc2ccccc12)c1ccc(C(C)C)cc1	59%[activator]	32%[activator]
COc1cccc(NC(=O)Cn2c(NCc3ccccc3)nc3ccccc32)c1	-15%	67%[activator]
CC(COc1ccc(C#N)c(F)c1)CN1CCC(C(O)(c2ccccc2)c2ccccc2)CC1 (stereo unspecified)	-7%	-10%
O=C(CN1CCCCC1)Nc1oc2ccccc2c(=O)c1-c1ccc(F)cc1	2%	-3%
CCCCC1CCC(C(=O)N2CC(=O)Nc3ccc(Cl)cc3C2c2ccc(F)cc2)CC1 (stereo unspecified)	-8%	-13%
COc1ccc(-n2ncc3c2ncn2nc(-c4ccc(Cl)cc4Cl)nc32)cc1	6%	0%

Complete entries, looked up by structure. Values in the order: 2A Renilla	StopGo FLuc
CC(C)CC(=O)Nc1nnc(S(=O)(=O)N(CC(C)C)c2ccccc2)s1 across the screens: -25%	6%
CCc1ccc(S(=O)(=O)c2nnn3c2nc(NC(C)C)c2sccc23)cc1 across the screens: -13%	-22%
O=C(CN1CCCCC1)Nc1oc2ccccc2c(=O)c1-c1ccc(F)cc1 across the screens: 2%	-3%

Next part.
SMILES	2A Renilla	StopGo FLuc
CN1CCC(NC(=O)c2cc(-c3ccccc3Cl)nc3ccccc23)CC1	2%	-8%
Cc1cc(C)c(C)c(C(=O)CSc2nnnn2C)c1C	1%	-3%
CN(C(=O)Cn1nc(-c2ccccc2)ccc1=O)C1CCS(=O)(=O)C1 (stereo unspecified)	-17%	-17%
COc1ccc(-c2ocnc2C(=O)Nc2ccc(F)cc2F)cc1	-10%	-7%
COc1ccc(NC(=O)c2nn(C(C)C)c(=O)c3ccccc23)cc1	-4%	21%
CCc1ccccc1NC(=O)CNC(=O)c1cc(=O)c2cc(C)ccc2o1	-1%	-6%
COc1ccc(S(=O)(=O)c2nc(-c3ccc(F)cc3)oc2N2CCOCC2)cc1	38%[activator]	6%
CCc1ccc(C2Sc3ccccc3NC3=C2C(=O)c2ccccc23)cc1 (stereo unspecified)	218%[activator]	28%
CCOCCCNC(=O)C(c1ccccc1)N(Cc1cccs1)C(=O)c1ccc(NC(C)=O)cc1 (stereo unspecified)	22%	2%
Cc1nn2c(=O)cc(COC(=O)c3ccccc3NC(=O)COc3ccccc3C)nc2s1	-13%	-11%

Some of the compounds tested, so the mix of outcomes need not match the whole.
